Screening data as filed in PubChem BioAssay.
ugtP null kill = compounds lethal to S. aureus RN4220 ugtP deletion mutant; growth inhibition, % (test concentration not listed); hit rate 0.54% among 330,000; OD600 growth, 16 h; some inactives read as strong as hits;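 active = z-score under -3 and OD600 up to 0.15 on both plates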;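 note: plate controls were untreated wells for no effect and antibiotic for full effect; wells of about 80 µL received 100 nL stock; the first replicate is given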
Mtb hypoxia inh = inhibitors of hypoxia-regulated fluorescent reporter in Mycobacterium tuberculosis; fluorescence inhibition, % (test concentration not listed); hit rate 0.1% among 300,000; AID 1159583; M. tuberculosis hypoxia-regulated fluorescent reporter, fluorescence;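 active = 35 to 45% if threefold the growth effect, above 45% if 1.5-fold the growth effect; inactive = the rest, general growth blockers included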;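 note: wells of about 50 µL received 100 nL stock; 0% = vehicle wells and 100% = reference inhibitor wells; whole bacteria with a GFP reporter of the hypoxia response; strong numbers were not always called active; many hits fall short of the cut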
PrP 5UTR inh = suppresses PrP 5' UTR mRNA reporter expression | cell-based PrP 5' UTR mRNA reporter, plate reader | inhibition, % (test concentration not listed) | hit rate 0.35% among 340,000 | AID 488862;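 active = every replicate at 50% or more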;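 note: 0 = median of the neutral control wells; tested in H4 reporter cells; numbers are from one replicate; inactives centre near -14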
RN4220 kill = S. aureus RN4220 growth inhibition; OD600, 16 h; inhibition, % (test concentration not listed); hit rate 0.33% among 330,000;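 active = z-score of -3 or lower and OD600 up to 0.18 on both plates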;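 note: plate controls were untreated cells for no effect and reference antibiotic for full effect; stock transfer was 100 nL into about 80 µL; one replicate is shown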
BJeLR lethal = kills HRASV12-expressing BJeLR cells. AID 1554. hit rate 0.17% among 300,000. BJeLR (HRASV12) viability, CellTiter-Glo ATP luminescence, 48 h; reference of the scale not given here. inhibition, % (test concentration not listed);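 active = replicate mean above 50%; inconclusive = above 50% but judged a plate artefact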;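 note: 50 nL library stock added to about 25 µL; numbers are from one replicate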
Bead autofluor = counter-screen for toxin protease inhibitors: compound fluorescence; compound autofluorescence counterscreen, microsphere flow cytometry; hits give high values; fluorescence intensity (concentration not given with the values); hit rate 3.1% among 360,000; AID 624483;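 active = at least 3 SD above the mean of all compounds, about 16000 in these data; inconclusive = too few beads counted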;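 note: 100 nL of 1 mM stock went into each well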
Mtb hypoxia inh growth = further read-out of Mtb hypoxia inh, marked with its call; growth inhibition, %; measured here: M. tuberculosis growth (absorbance);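 0% = vehicle and 100% = reference antibiotic; read after six days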
* marks the source's active call; other numbers are inactive results; u = inconclusive; x = no result given.

canonical_smiles,RN4220 kill,Mtb hypoxia inh,Bead autofluor,ugtP null kill,Mtb hypoxia inh growth,PrP 5UTR inh,BJeLR lethal
CC(=O)Nc1ccc(NC(=O)C(C)n2nc(C)c([N+](=O)[O-])c2C)cc1 (configuration not stated),-1.9,4.1,4952,-4.1,-1.2,-23.0,6.9
CCN(c1ccc(OCC(=O)OCC(=O)Nc2ccc(F)c(F)c2F)cc1)S(=O)(=O)c1ccccc1,8.1,9.4,2741,-4.7,0.6,-10.2,x
Cn1c(=O)cc(OCC(=O)NCCCN2CCN(Cc3ccccc3)CC2)c2ccccc21,6.1,x,5927,9.1,x,-36.4,-3.8
Cc1ccc(C(=O)Nc2cccc(C(=O)NC3CCCC3)c2)cc1,1.5,7.3,4574,7.5,15.7,-12.4,10.5
O=C(Cc1ccccc1)Oc1cccc(N2C(=O)CCC2=O)c1,-7.3,6.7,3501,1.5,3.8,-14.3,-4.3
Cc1ccn2c(/C=N/OCc3ccc(F)cc3)c(-c3ccc(Cl)cc3)nc2c1,x,x,2634,x,x,-8.3,0.9
O=C1COc2ccc(-c3csc(=Nc4ccc(OC(F)F)cc4)n3CC3CCCO3)cc2N1 (configuration not stated),1.4,-5.0,18135*,10.8,3.9,-17.3,3.0
Cc1[nH]c2ccccc2c1/C=N/NC(=O)CCC(=O)Nc1ccccc1,x,x,8489,x,x,-13.4,1.1
O=C(c1cccc([N+](=O)[O-])c1)N1CCc2ccccc21,3.9,-4.0,3821,5.1,0.0,-10.4,4.6
O=C(O)c1sc2cc(C(F)(F)F)cnc2c1-c1ccccc1,3.0,1.6,3112,2.6,7.3,-9.7,1.3
Cc1cc(N2CCOCC2)n2cc(-c3ccccc3)nc2n1,2.4,9.2,3101,7.1,-3.1,-6.7,5.4
COc1ccc(N2CCN(CC(O)COc3ccc(C)c(C)c3)CC2)cc1 (configuration not stated),1.2,-7.7,3662,6.0,15.6,-8.0,-17.9
CCn1c(CNC(=O)c2ccc(OC)c(OC)c2)nnc1SCC(=O)Nc1ccccc1,4.8,-7.8,11072,14.7,0.6,-28.5,-7.6
COc1ccc(C2CC(=O)C3=C(C2)Nc2ncnn2C3c2ccccc2)cc1 (configuration not stated),-3.1,x,2509,-6.7,x,-17.7,-3.3
Cc1ccc(S(=O)(=O)N2CCOCC2)cc1C(=O)OCC(=O)N1CCCC1=O,1.9,-4.4,4088,-5.4,-4.9,-12.7,x

The final 3 entries of the part before lead into the next:
canonical_smiles,RN4220 kill,Mtb hypoxia inh,Bead autofluor,ugtP null kill,Mtb hypoxia inh growth,PrP 5UTR inh,BJeLR lethal
CCn1c(CNC(=O)c2ccc(OC)c(OC)c2)nnc1SCC(=O)Nc1ccccc1,4.8,-7.8,11072,14.7,0.6,-28.5,-7.6
COc1ccc(C2CC(=O)C3=C(C2)Nc2ncnn2C3c2ccccc2)cc1 (configuration not stated),-3.1,x,2509,-6.7,x,-17.7,-3.3
Cc1ccc(S(=O)(=O)N2CCOCC2)cc1C(=O)OCC(=O)N1CCCC1=O,1.9,-4.4,4088,-5.4,-4.9,-12.7,x
O=[N+]([O-])c1ccc(C(O)CN2CCN(C/C=C/c3ccccc3)CC2)cc1 (configuration not stated),x,x,3805,x,x,-12.5,0.3
CCN(CC)CCCNC(=O)c1ccc(N2CCCCC2)c(NS(=O)(=O)c2ccc(C)cc2)c1,-3.7,5.0,7283,1.5,8.1,-35.4,3.5
Cc1ccc(NC(=O)c2c(C)nc3sc(C(=O)NC4CCCC4)c(N)c3c2-c2ccco2)c(C)c1,3.9,-2.2,2408,0.5,1.0,-13.7,6.3
O=C(/C=C/c1ccccc1Cl)Nc1ccc(S(=O)(=O)Nc2ncccn2)cc1,4.3,18.4,4747,7.4,20.3,-0.2,12.3
c1ccc(-c2csc3ncnc(NCc4ccccn4)c23)cc1,x,x,4442,x,x,-23.8,12.1
COc1cccc(CN2C(=O)CCC2(C)C(=O)NCCc2ccc(OC)c(OC)c2)c1 (configuration not stated),1.1,-7.7,2926,2.5,-3.5,2.3,-9.1
O=C(Nc1ccccc1Cl)N1CCN(Cc2ccc3c(c2)OCO3)CC1,2.0,-1.5,4224,0.2,-0.8,-40.5,-1.8
Cn1nc(C(=O)OCC(=O)NC2CCS(=O)(=O)C2)c2ccccc2c1=O (configuration not stated),5.3,2.7,3764,4.6,-5.4,1.2,-22.1
Cc1cc(C)cc(N(CC(=O)NC2CCCC2)S(=O)(=O)c2c(C)[nH]c(=O)[nH]c2=O)c1,1.1,-1.1,3374,8.0,-12.1,4.1,2.4
CC1Cc2ccccc2N1C(=O)CON=Cc1ccc(OC(F)F)cc1 (configuration not stated),8.5,7.0,x,0.4,2.6,x,x
COC(=O)c1sc2ccc(C)cc2c1C(=O)OC,6.8,-7.6,2936,17.2,3.8,-16.8,-3.1
O=C(NN=C/C=C/c1ccco1)/C(=C/c1ccccc1)NC(=O)c1ccccc1,7.8,15.4,x,3.3,4.3,x,x
COc1cccc(NC(=S)N(Cc2ccc(Cl)cc2)Cc2ccc(C(=O)O)cc2)c1,6.1,4.7,3426,17.6,0.7,-14.9,3.5
CN(CC(=O)Nc1ccc(F)c(F)c1F)C(=O)c1ccc(=O)[nH]c1,-4.6,-4.3,5776,-8.3,4.9,-14.2,-1.8
Cc1c(C)c2ccc(O[C@@H]3O[C@H](CO)[C@H](O)[C@H](O)[C@H]3O)cc2oc1=O,1.7,2.4,5219,0.6,11.3,-10.8,-2.5
Cc1cc(C)n2[nH]c(=O)c(N=Nc3cccc(Cl)c3)c2n1,0.6,2.9,2854,-14.4,2.2,-12.5,-6.2
CC1(C)Cc2cccc(Oc3ccc(S(=O)(=O)N4CCCC4)cn3)c2O1,5.3,16.0,3721,-0.8,7.1,-41.9,-4.7
CCOc1cc(/C=N/NC(=O)CN2CCCCC2)ccc1OCc1ccccc1,x,x,4521,x,x,-5.9,8.7
Cc1ccc(S(=O)(=O)N2CCOCC2)cc1C(=O)NCc1ccccn1,-2.8,-12.1,3702,-4.2,3.3,-19.4,x
N#C/C(=C\c1ccc(F)c(Br)c1)C(=O)NC1CC1,4.8,9.7,5420,-5.0,-4.4,-18.3,-4.6
CN(C(=O)Oc1ccc(C(=O)c2ccc(Cl)cc2)cc1)c1ccccc1,0.2,-2.8,2658,27.0,-1.8,-1.2,-16.1
COC(=O)c1c(C(=O)OC)c(-c2cccc(Cl)c2)n2c1CS(=O)(=O)C2,2.0,-6.4,3762,-3.2,9.4,-24.1,-2.7
O=C(OCc1nnc(-c2ccccc2)o1)c1ccc2c(c1)OCO2,6.8,-0.1,3211,11.6,-1.3,-9.1,8.5
COc1ccc(N(C(=O)c2ccco2)C(C(=O)NC2CCCC2)c2ccncc2)cc1 (configuration not stated),2.8,5.8,5593,11.2,0.6,-11.6,0.1
CCCCSc1nnc(-c2cc(Br)ccc2N)c(=O)[nH]1,8.9,2.8,20791*,-4.1,5.5,-1.3,3.9
Nn1c(SCC(=O)NCC2CCCO2)nnc1-c1cc(Cl)ccc1Cl (configuration not stated),4.1,-7.2,4278,12.7,1.0,-18.0,x
COc1ccc(/C=N/n2cnnc2)cc1COc1ccccn1,x,x,23503*,x,x,-9.8,4.0
O=C(NC(=S)N1CCc2ccccc21)c1ccccc1,3.4,-7.9,2217,15.0,-6.5,-12.0,-4.7
COc1ccc(-c2cc(C(=O)N/N=C/c3sccc3C)c3ccccc3n2)c(OC)c1,x,x,4126,x,x,-9.5,4.7
Cc1ccccc1NC(=S)N(Cc1cccnc1)Cc1ccco1,2.9,-3.7,6843,2.5,-0.3,-13.0,-0.7
O=C(NCC(c1ccco1)N1CCCC1)c1ccccc1F (configuration not stated),2.0,13.2,9541,2.0,16.2,-17.2,5.9
CCNc1nc(NC(C)(C)C)nc(N(C#N)CC)n1,-0.1,-2.3,u,-3.3,-5.5,1.2,4.2
CCn1cc(C(=O)O)c(=O)c2cc(F)c(N3CCN(C(=S)NC(=O)c4ccccc4Br)CC3)cc21,97.7*,-8.2,3847,98.9*,9.6,-25.3,10.1
COc1ccc(CC(CC(=O)O)C(=O)Nc2ccccc2)cc1 (configuration not stated),1.5,15.7,8855,-3.0,12.0,-11.9,-4.6
CCCCc1nc(SCCOC)c2c(=O)n(C)c(=O)n(C)c2n1,-1.6,-3.8,4039,0.4,2.4,-11.7,2.1
C=CCSc1nc2ccsc2c(=O)n1-c1ccccc1,9.6,5.1,4773,11.5,3.4,8.3,-0.8
O=S(=O)(c1ccc2oc3ccccc3c2c1)N1CCCC1,2.0,x,4663,-1.2,x,6.5,-2.4
CCOC(=O)c1ccc(Nc2nc(=O)c3cccnc3s2)cc1,2.1,-8.6,9604,-3.3,-0.9,-50.7,13.7
CC(=O)Nc1cc(C(=O)N2CCc3ccccc3C2)ccc1Sc1ccc(Cl)cc1,-3.4,9.7,2049,5.8,8.7,-6.8,-1.7
Cc1cccc(CNCCc2ccccc2)n1,2.4,-5.1,9631,5.6,-5.3,-16.6,-2.7
CC(Oc1ccc(-c2ccccc2)c(F)c1)c1ccn(S(=O)(=O)c2ccc(F)cc2)n1 (configuration not stated),-5.2,8.4,8218,-13.1,6.0,-19.1,-1.0
CC1CCCC(NC(=O)CCNC(=O)c2ccc([N+](=O)[O-])cc2)C1C (configuration not stated),-1.7,12.5,u,3.2,3.4,-17.7,-0.7
CCC/C=C(\CCC)C(NC(=O)Cc1ccccc1)c1ccc(C(=O)OC)cc1 (configuration not stated),x,x,3997,x,x,-11.6,1.4
FC(F)(F)c1cccc(NC(=S)N2CCCC2)c1,4.9,13.4,3446,3.5,6.1,33.8,-4.6
O=C(Cc1cccs1)NCCSc1c(-c2ccc(Cl)cc2)[nH]c2ccccc12,14.9,4.5,6392,-7.6,4.7,-16.7,14.2
CCOc1ccc(NS(=O)(=O)c2ccc(C(=O)NCC(c3ccco3)N(C)C)cc2)cc1 (configuration not stated),1.0,12.1,4517,10.6,8.3,-5.2,3.6
CC(NC(=O)c1csc2ccccc12)C1CCCO1 (configuration not stated),1.4,11.6,16909*,0.1,9.0,-15.3,2.3
Cc1c(N)cccc1-c1nc2ccccc2[nH]1,2.7,x,3737,4.4,x,-20.8,-1.0
CCN(C[C@H]1N[C@@](C)(C(=O)OC)[C@H]2C(=O)N(C)C(=O)[C@@H]12)C(=O)Nc1ccc(F)cc1,1.2,0.0,3875,0.5,-0.3,-10.7,x
Cc1ccc(S(=O)(=O)N2CCN(C(=O)CSc3nnc(-c4ccco4)o3)CC2)cc1,2.7,15.6,3920,0.2,15.3,-10.3,-3.2
Cc1ccc(SCCNC(=S)Nc2ccc(C)cc2C)cc1,4.5,-3.9,2278,-4.8,-0.3,-8.8,-2.7
O=C(CSc1ccccc1C(=O)O)NC1CCCCCC1,6.2,-8.0,4272,9.6,0.2,-5.4,11.0
Cc1ccc(C)c(Cn2c(CN(C)Cc3ccccc3)nc3c2c(=O)n(C)c(=O)n3C)c1,-8.0,0.9,5253,-6.0,12.7,-14.0,4.4
CN(CC1CCCN(CCc2ccc(F)cc2)C1)C(=O)CCC(F)(F)F (configuration not stated),2.5,-2.4,3258,5.4,5.5,-7.0,-2.2
COC(=O)c1cn(C(=O)c2cc(C)cc(C)c2)c2ccccc12,2.6,3.5,4922,-6.6,10.5,-22.8,5.6
OC(CN1CCN(c2ccccc2)CC1)c1c[nH]c2ccccc12 (configuration not stated),3.1,-3.8,2974,-1.7,-0.8,-9.0,7.1
CCNC(=O)Nc1ccc(OC)cc1OC,3.3,3.9,1976,-0.8,4.7,-12.1,-9.9
O=C(O)CN1C(=O)/C(=C2\SC(=S)N(C(Cc3ccccc3)C(=O)O)C2=O)c2ccccc21 (configuration not stated),-1.2,5.1,4025,8.7,0.8,-25.9,-16.5
Cc1ccc(OCC(=O)NN=C/C=C/c2ccco2)cc1C,8.1,0.6,x,-11.2,-2.1,x,x

Random draw from the library. About 4% of those tested had a hit in this group.
